CtBP-E1A blk: inhibitors of CtBP/E1A interaction; AlphaScreen GST-E1A/His-CtBP binding, 1536-well; hits give low values; control for the full effect not named in the record; activity change, % (concentration not given with the values); 340,000 compounds, 0.49% hits; in the data active means activity change below about -65%; inconclusive means about -30% to -65%; inactive means above about -30%; note: % is set by controls: 0 for no effect and ±100 for the full control effect
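Steps: dispense buffer (Tris pH 8.0, NaCl 300 mM, TCEP 1 mM, BSA, Tween 20); add 5X protein mix (GST-E1A, His-CtBP, 125 nM each); pin 23 nL compound; 2 h at 37 °C, dark; add 5X beads (50 ug/mL); 1 h; read.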
TRPML1 ag: human mucolipin-1 channel agonism. 410,000 compounds, 0.12% hits. AID 624414. TRPML1-expressing cells, Ca2+ dye fluorescence, FDSS; host cell line not named in the record; reference of the full effect not given here. activation, % (concentration not given with the values); in the data active = activation above about 50%; inconclusive = about 30% to 50%; inactive = below about 30%; note: 0% is about no effect; the text of the record puts the active cut at 80%
Target sequence (Q9GZU1 whole entry, looked up): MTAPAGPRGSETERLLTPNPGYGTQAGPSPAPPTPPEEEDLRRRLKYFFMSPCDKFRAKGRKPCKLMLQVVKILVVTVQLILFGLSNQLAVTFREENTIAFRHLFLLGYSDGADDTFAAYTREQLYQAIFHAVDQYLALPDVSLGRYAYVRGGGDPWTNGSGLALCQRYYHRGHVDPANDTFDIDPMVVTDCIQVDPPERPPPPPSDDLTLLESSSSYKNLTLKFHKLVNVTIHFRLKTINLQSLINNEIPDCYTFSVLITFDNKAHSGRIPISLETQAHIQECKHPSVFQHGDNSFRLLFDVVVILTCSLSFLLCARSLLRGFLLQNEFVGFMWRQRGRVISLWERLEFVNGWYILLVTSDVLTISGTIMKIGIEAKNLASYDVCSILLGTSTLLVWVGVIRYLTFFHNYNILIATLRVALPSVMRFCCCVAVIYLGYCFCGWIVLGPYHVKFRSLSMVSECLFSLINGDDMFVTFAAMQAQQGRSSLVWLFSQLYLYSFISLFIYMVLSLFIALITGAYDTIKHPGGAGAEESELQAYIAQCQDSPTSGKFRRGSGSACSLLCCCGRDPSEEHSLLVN
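Calcium fluorescence on an FDSS kinetic reader gave the read-out. Tet-induced TRPML1-DL cells were plated overnight, dye-loaded (Ca8 with quencher, 45-90 min, room temperature, dark), then read 110 s after compound addition, and again 110 s after 4uM final 54-4 (EC80).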
D2 PAM: potentiates the human D2 dopamine receptor allosterically; AID 624464; potentiation, % (test concentration not listed); 360,000 compounds, 0.23% hits; DiscoveRx D2 beta-arrestin cells, luminescence, 90 min; 100% = 57 uM dopamine signal; P14416; active = potentiation of 50% or more; inconclusive = 30% to 50%; inactive = 30% or less;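 note: compound concentration not given in the record; tested on top of an EC20 dose of dopamine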
Target sequence (P14416 whole entry, looked up): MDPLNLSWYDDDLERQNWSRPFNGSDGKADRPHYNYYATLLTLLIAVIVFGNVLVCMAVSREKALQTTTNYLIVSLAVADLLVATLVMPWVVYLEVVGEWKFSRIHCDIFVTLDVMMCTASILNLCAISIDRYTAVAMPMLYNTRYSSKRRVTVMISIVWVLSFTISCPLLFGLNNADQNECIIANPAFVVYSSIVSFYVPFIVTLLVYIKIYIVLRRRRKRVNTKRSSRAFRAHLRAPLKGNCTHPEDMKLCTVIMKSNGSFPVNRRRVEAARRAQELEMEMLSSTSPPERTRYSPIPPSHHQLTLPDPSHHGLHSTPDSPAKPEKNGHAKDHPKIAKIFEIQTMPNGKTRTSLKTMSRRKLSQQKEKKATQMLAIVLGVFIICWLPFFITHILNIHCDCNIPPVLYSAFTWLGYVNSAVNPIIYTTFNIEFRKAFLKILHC
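PathHunter beta-arrestin assay in DiscoveRx D2 cells. Compounds were added with an EC20 of dopamine (50 nM final) for 90 min at 37 deg C. Luminescence was read 1 h after detection reagent, with 57 uM dopamine as the EC100 control.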
PINK1 expr mod: PINK1 expression modulation. PINK1 immunofluorescence, high-content cytometry, 24 h. Potency, µM (doses to about 76.6 µM), inactives show top-dose activation (PINK1 increase), actives largely listed as activators. 410,000 compounds, 0.2% hits. AID 624263; active = well fitted activation curve with a large enough effect; inconclusive = small, poorly fitted or top-dose-only effect; inactive = flat fitted curve, though single readings scatter; cell line not stated here;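 note: potency is the fitted concentration of half-maximal effect; % of control where 0% means no effect; nearly all actives have a fitted effect of over 65% in size; a mitochondrial uncoupler was the plate control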
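Stable cell line treated 24 h with compounds at 5 concentrations (CCCP controls), then fixed and immunostained for PINK1 plus nuclear and cell stains; PINK1 immunofluorescence quantified by laser-scanning microplate cytometry.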
D2 ag: agonists of human D2 dopamine receptor (beta-arrestin). DiscoveRx PathHunter D2 beta-arrestin, luminescence, 90 min; 100% = 57 uM dopamine signal. activation, % (test concentration not listed). 360,000 compounds, 0.084% hits. AID 624465; in the data active = activation above about 40%; inconclusive = about 15% to 40%; inactive = below about 15%; note: compound concentration not given in the record; the text of the record calls up to 30% inactive
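DiscoveRx PathHunter D2 beta-arrestin cells (2,100/well) attached overnight, then compound-stimulated 90 min at 37 C in HBSS/10 mM HEPES/0.1% Tween-20 buffer; beta-galactosidase complementation read by luminescence after 1 h at ambient temperature. Dopamine 57 uM final (EC100) as control.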
Six1-Eya2 inh: inhibitors of human Six1/Eya2 interaction; AlphaScreen GST-Six1/His-Eya2 binding, biochemical; hits give low values; control for the full effect not named in the record; activity change, % (no concentration beside the values); AID 651725; 360,000 compounds, 0.56% hits; in the data active = activity change below about -65%; inconclusive = about -30% to -65%; inactive = above about -30%; note: % is set by controls: 0 for no effect and ±100 for the full control effect
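AlphaScreen luminescence read after one hour at 37 °C in darkness. Pin-transferred compounds met GST-Six1 and His-Eya2 protein (5X stock 250 nM/500 nM) plus glutathione donor and Ni-chelate acceptor beads (5X, 50 ug/mL).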
An asterisk follows results filed as active; ? = inconclusive; · = not tested or not shown; & = joins results of further samples.

entry	SMILES	CtBP-E1A blk	TRPML1 ag	D2 PAM	PINK1 expr mod	D2 ag	Six1-Eya2 inh
1	Cc1ccc(C(=O)C(C)OC(=O)CN2C(=O)NC3(CCCC3)C2=O)cc1 (stereo unspecified)	5	1.0	-21	-2.3%	-2.2	20
2	COc1ccc(Oc2cn[nH]c2-c2ccc(O)cc2O)cc1	-4	1.3	14	-1.3%	3.8	1
3	COC(=O)c1ccc(COc2cccn3c(N(C)C(=O)CCC4CCCC4)c(C)nc23)cc1	-2	-0.8	2	3.2%	8.8	-11
4	COc1ccc(NS(=O)(=O)c2c(C(=O)N3CCCCCC3)c(C)n(C)c2C)cc1	-16	-1.1	-17	-1.1%	13	0
5	O=S(=O)(c1ccc(NC(=S)N2CCCCC2)cc1)N1CCCCC1	6	2.4	-8	2.5%	-1.4	-1
6	O=C(NCc1cccnc1)c1cc(S(=O)(=O)N2CCOCC2)c(Cl)cc1Cl	6	-0.7	-2	2.9%	-0.4	-4
7	COc1ccc(N2C(=O)NC(NC(=O)C(C)(C)C)(C(F)(F)F)C2=O)cc1 (stereo unspecified)	2	·	-11	2.5%	-4.3	1
8	O=C1c2cccnc2C(=O)N1CNc1ccc(Cl)cc1	·	-0.2	-5	5.4%	-2.6	-1
9	CC(C)[C@H](NC(=O)OCc1ccccc1)C(=O)NC(C=O)Cc1ccccc1 (stereo partly specified)	5	0.0	-7	0.7%	-6.1	-1
10	CCN(CC)c1ccc(/C=C(\C#N)C(=O)NCc2ccccc2)cc1	62	?	-10	2.2%	-3.2	57
11	COc1cccc(NC(=S)NC(=O)c2cccnc2)c1	6	0.2	-4	-0.5%	-6.2	-1
12	CCn1cc(S(=O)(=O)NC(C)c2cc(OC)ccc2OC)cn1 (stereo unspecified)	8	0.1	14	4.1%	0.3	7
13	O=C(O)CCC(=O)Nc1ccc(N2CCCCCC2)cc1	-12	-1.0	15	0.4%	-7.4	6
14	COc1ccc(NS(=O)(=O)c2cc(NC(=O)c3nc4nc(C)cc(C)n4n3)ccc2C)cc1	?	-0.3	-10	7.0%	-5.3	-19
15	Cc1c(NC(=O)c2cc(-c3ccc(Cl)s3)nc3ccccc23)c(=O)n(-c2ccccc2)n1C	5	-0.3	14	1.9%	1.1	11
16	COc1cccc2oc(CCc3ccccc3)cc(=O)c12	1	0.7	-6	-0.3%	0.2	6
17	CCn1c(C)nc2cc(C(=O)N/N=C/c3ccc(N4CCOCC4)cc3)ccc21	0	0.2	-3	2.4%	0.1	-4
18	COc1ccc(C(=O)CSc2nnc(CN3CCCCC3)n2-c2ccc(Cl)cc2)cc1OC	-6	8.2	-33	-2.0%	-4.8	-6
19	CSCCC(C(=O)NC1=NCCS1)N1C(=O)c2ccccc2C1=O (stereo unspecified)	4	0.5	2	0.1%	-3.1	-2
20	CC1(C)Cc2cccc(C(=O)Nc3ccncc3)c2O1	-6	0.7	13	-1.8%	3.7	2
21	COc1ccc(N2C(=O)c3ccccc3NC2c2ccc(OC)c(CSc3ccccn3)c2)cc1 (stereo unspecified)	-3	0.8	-10	10µM*	1.9	4
22	COCCNC(=S)NNC(=O)c1cc(C2CC2)nc2ccccc12	1	-0.7	-6	1.2%	-12	6
23	COc1ccc(NC(=S)Nc2ccccc2)cc1	3	0.8&3.5	-1&3	8.8%&-0.2%	-1.7&-3.2	4&0
24	CCCOc1ccc(-c2nnn(CC(=O)Nc3cccc(C(=O)OC)c3)n2)cc1	-15	-0.1	-9	8.5%	-2.6	3
25	COC1=CC(=NCl)C=CC1=NCl	-23	-0.5	17	2.8%	6.3	?
26	O=c1cc(C(F)(F)F)oc2c1ccc1ccccc12	0	0.8	-5	-3.1%	-1.3	1
27	O=C(NCc1ccc(F)cc1)Nc1ccc(Cl)cc1	11	0.4	-11	6.0%	-2.2	9
28	Cc1ccc(NS(=O)(=O)c2ccc3c(c2)oc(=O)n3C)c(C)c1	12	1.2	4	2.5%	0.9	0
29	CC(C(=O)Nc1nccs1)c1ccc([N+](=O)[O-])cc1 (stereo unspecified)	·	6.4	-8	0.3%	0.1	1
30	CC(C)NS(=O)(=O)c1ccc(OCC(=O)Nc2ccccc2F)cc1	9	0.0	-9	·	-0.8	0
31	O=C(Nc1ccc(F)c(Cl)c1)C1CCCC1	34	0.9	-10	1.3%	-1.5	34
32	CC(Sc1cccc2cccc(C(=O)O)c12)C(=O)O (stereo unspecified)	0	0.6	10	-0.9%	-0.9	14
33	Clc1ccc(SCCOCCN2CCCCC2)cc1	-10	-0.1	-21	0.3%	-1.3	-23
34	CC(C)(C)NCc1cc(Br)ccc1OC1CCCC1	·	-0.1	-15	4.7%	-2.4	0
35	Cc1ccc(Cn2c(=O)c3c(nc4n3CCN4Cc3ccco3)n(C)c2=O)cc1	?	12	-21	-2.9%	0.1	?
36	Nc1nc(N2CCCCC2)nc(N(c2ccccc2)c2ccccc2)n1	1	-0.6	1	-0.5%	9.2	-3
37	NS(=O)(=O)c1ccc(NC(=O)COC(=O)c2ccc(S(=O)(=O)N3CCOCC3)cc2)cc1	9	-0.6	4	-2.0%	1.5	2
38	COc1cccc(/C=N/n2c(COc3ccccc3)n[nH]c2=S)c1	-7	0.0	-11	2.1%	-6.5	0
39	CCOC(=O)N1CCN(c2ccc(C(=O)c3cccc(F)c3)cc2)CC1	8	0.7	-14	·	4.8	18
40	CC(=O)Nc1ccc(S(=O)(=O)NNC(=O)C2CCCCC2)cc1	-6	1.4	-14	-0.6%	0.4	2

Sorted by value in D2 ag (rising): 3 from the list above
item | Structure | CtBP-E1A blk | D2 PAM | PINK1 expr mod | D2 ag | Six1-Eya2 inh
34 | CC(C)(C)NCc1cc(Br)ccc1OC1CCCC1 | · | -15 | 4.7% | -2.4 | 0
5 | O=S(=O)(c1ccc(NC(=S)N2CCCCC2)cc1)N1CCCCC1 | 6 | -8 | 2.5% | -1.4 | -1
35 | Cc1ccc(Cn2c(=O)c3c(nc4n3CCN4Cc3ccco3)n(C)c2=O)cc1 | ? | -21 | -2.9% | 0.1 | ?

Returning to the listing with the 5 entries that preceded the break.
entry	SMILES	CtBP-E1A blk	TRPML1 ag	D2 PAM	PINK1 expr mod	D2 ag	Six1-Eya2 inh
36	Nc1nc(N2CCCCC2)nc(N(c2ccccc2)c2ccccc2)n1	1	-0.6	1	-0.5%	9.2	-3
37	NS(=O)(=O)c1ccc(NC(=O)COC(=O)c2ccc(S(=O)(=O)N3CCOCC3)cc2)cc1	9	-0.6	4	-2.0%	1.5	2
38	COc1cccc(/C=N/n2c(COc3ccccc3)n[nH]c2=S)c1	-7	0.0	-11	2.1%	-6.5	0
39	CCOC(=O)N1CCN(c2ccc(C(=O)c3cccc(F)c3)cc2)CC1	8	0.7	-14	·	4.8	18
40	CC(=O)Nc1ccc(S(=O)(=O)NNC(=O)C2CCCCC2)cc1	-6	1.4	-14	-0.6%	0.4	2
41	CCOc1cc2[nH]c(=O)n(CC3CCC(C(=O)NCCCOC)CC3)c(=O)c2cc1OCC (stereo unspecified)	-5	0.4	-15	1.1%	-0.7	1
42	CS(=O)(=O)N(CC(=O)N1CCN(Cc2ccccc2)CC1)c1ccc(F)cc1	6	0.1	0	1.5%	-0.1	5
43	COc1ccc(CN2C(=O)C(CC(=O)NC3CCCC3)CC(C(=O)N(C(C)C)C(C)C)=C2C)cc1 (stereo unspecified)	-14	0.4	-1	3.9%	-0.7	-16
44	CCN(CC)c1nc(-c2cccc(OC)c2O)nc2ccccc12	-9	0.4	-5	1.1%	-1.7	-24
45	COC(=O)c1nn(-c2ccccc2)c(=O)cc1Oc1ccccc1	12	-1.2	-5	0.0%	-3.1	4
46	COc1ccc(Nc2c(-c3ccc(C)cc3)nc3cnccn23)cc1	·	2.7	0	1.7%	3.6	-17
47	CC(=NCCc1ccccc1)C1=C(O)C(c2ccccc2)OC1=O (stereo unspecified)	-10	0.6	-4	4.5%	-5.3	-7
48	O=C(COc1ccccc1[N+](=O)[O-])N/N=C/c1ccc(O)c([N+](=O)[O-])c1	-9	-0.6	-11	-0.9%	-0.9	-5
49	COC(=O)c1sc(C(F)(F)F)c(-c2ccccc2)c1S(=O)(=O)NC(C)(C)C	-16	2.2	-8	0.0%	-5.8	-6
50	O=C1C(=Cc2cccs2)C(=O)c2ccccc21	-13	3.4	3	2.2%	-4.4	9
51	COc1ccccc1-c1nnc(N)s1	0	1.0	-5	2.2%	0.4	-2
52	COCCNC(=O)C1CC(c2ccccc2[N+](=O)[O-])=NO1 (stereo unspecified)	8	0.3	-8	-1.3%	-0.7	0
53	Cc1noc(C)c1C(=O)NC(C)c1ccc2c(c1)OCO2 (stereo unspecified)	7	1.8	1	?	2.7	4
54	Cc1ccc(-n2c(-c3cccnc3)n[nH]c2=S)c(C)c1	-8	-0.1	-2	·	3.1	-2
55	CCN(c1cccc(C)c1)S(=O)(=O)c1cc2c3c(c1)CCN3C(=O)CC2	-1	-0.4	21	-0.2%	1.8	2
56	CC(=O)N1N=C(c2ccccc2)CC1c1cccs1 (stereo unspecified)	2	1.6	1	-0.3%	-2.4	-3
57	CCCc1cc(=O)oc2c3c(cc(OCC(=O)N[C@@H](CSC)C(=O)O)c12)OC(C)(C)CC3	-25	-1.1	-4	-0.8%	-2.5	-1
58	COCc1nnc(NC(=O)CSc2ccccc2)s1	3	1.4	-23	·	-0.3	6
59	C=C(C)CSc1nc2c(c(=O)[nH]c(=O)n2C)n1CCC(C)C	0	2.4	-3	5.5%	-2.1	0
60	Cc1ccc(S(=O)(=O)N(C)C[C@H]2Oc3cc(Br)ccc3S(=O)(=O)N([C@H](C)CO)C[C@@H]2C)cc1	-5	-0.6	-2	-0.1%	-2.0	1
61	O=C(Nn1cnnc1)c1ccccc1F	0	-0.6	-6	1.1%	4.2	1
62	O=C(Nc1cccc(S(=O)(=O)N2CCOCC2)c1)c1cc(S(=O)(=O)N2CCOCC2)c(Cl)cc1Cl	?	3.7	29	0.5%	9.8	-4

Source: PubChem (National Center for Advancing Translational Sciences (NCATS))
